# Mtb growth = Mycobacterium tuberculosis H37Rv growth inhibition, cell based, confirmatory dose response (AID 1949) | M. tuberculosis H37Rv growth inhibition | most inactive calls were filed without a number and no value below 0 was filed | 1.6% of 100,000 active | inhibition, % at 10 µg/mL, or IC50 in µg/mL where a hit was titrated;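 active means confirmed in a dose series; inconclusive means about 50% or more but not retested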;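 further: bacteria grown 7 days with compound before Alamar blue readout; 0% = untreated bacteria and 100% = reference antibiotic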
# Starred values were filed as active, the others as inactive; i = inactive; u = inconclusive. An excerpt; rates above refer to the full screens.
SMILES,Mtb growth
O=C(CSCc1ccc([N+](=O)[O-])cc1)Nc1cccc(Cl)c1Cl,i
Nc1cc(=O)nc(SCc2ccccc2)n1Cc1ccco1,i
Nc1nn(S(=O)(=O)c2ccc(Cl)cc2)cc1-c1ccc(F)cc1,i
COc1ccc(CCNC(=O)CSc2nnnn2-c2ccccc2)cc1,i
CC1CCCCN1C(=O)CN1C(=O)c2ccccc2C1=O (stereo unspecified),0.0%
Cc1sc2ncnc(SC(C)C(=O)O)c2c1C (stereo unspecified),i
Cc1ccc(OCC(=O)Nc2ccc(Br)cc2)c(C)c1,i
Cc1ccc(O)c(C(CC(=O)NCc2ccco2)c2ccccc2)c1 (stereo unspecified),i
CCCc1cc(=O)oc2cc(C)cc(OCC(=O)c3ccc(Br)cc3)c12,1.3%
Nc1ccc(C(=O)NCC2CCCO2)cc1 (stereo unspecified),i
O=C(COc1ccc(F)cc1)Nc1cc(Cl)ccc1C(=O)O,15.3%
Cc1cc(C)nc(NC(=S)Nc2cccc3ccccc23)c1,2.1%
CC(=O)Nc1cccc(NC(=O)COc2ccccc2C)c1,i
CN(Cc1ccccc1)C(=O)CN1C(=O)c2cccc3cccc1c23,i
O=C(Nc1ccc(Cl)cc1F)C1CC(=O)N(c2ccc(Cl)cc2)C1 (stereo unspecified),i
N/C(=N\OC(=O)CCCN1C(=O)c2ccccc2C1=O)c1ccc(Cl)cc1,i
CC(C)(C)c1cc(CN)c(C(=O)O)o1,i
CC1(C)C(=O)C2(C(=O)Nc3ccc(NC(=O)C45CCC(C4)C(C)(C)C5=O)cc3)CCC1C2,i
O=C(COc1ccccc1)N1CCN(C/C=C/c2ccccc2)CC1,i
COCCn1c(Cc2ccccc2)nnc1SCC(=O)Nc1ccccc1C(F)(F)F,i
CCc1cccc(C)c1NC(=O)C1CCN(S(=O)(=O)c2cc(Cl)ccc2Cl)CC1,i
Cc1cccc(C(=O)N2CCCCCC2)c1[N+](=O)[O-],i
CCCC(=O)Nc1ccccc1NC(=O)COc1ccc(C(C)(C)C)cc1Br,i
C=CCc1cc(C)ccc1OCCNC(C)C,i
COC(=O)C1=C(C)N(C)C(C)=C(C(=O)OC)C1c1ccc(SC)cc1,i
CCCCc1cc(=O)oc2cc(OCC(=O)c3ccc4ccccc4c3)ccc12,i
Cc1ccc2oc(C(=O)Nc3ccccc3Br)c(C)c2c1,i
CCOc1ccc2nc(SCC(=O)NC3CCCCC3)[nH]c2c1,i
COC(=O)c1ccccc1NC(=O)COc1ccccc1F,i
CCOC(=O)Nc1sc(NS(=O)(=O)c2ccccc2)nc1C,i

# Structures above that have a nitro group on carbon, in the order listed:
SMILES,Mtb growth
O=C(CSCc1ccc([N+](=O)[O-])cc1)Nc1cccc(Cl)c1Cl,i
Cc1cccc(C(=O)N2CCCCCC2)c1[N+](=O)[O-],i

# The listing continues.
SMILES,Mtb growth
Cc1cc(Oc2ccccc2)nc(OCC#N)n1,i
CCOC(=O)c1ccc(NC(=O)CSc2nnc(-c3ccco3)c(-c3ccco3)n2)cc1,19.7µg/mL*
COc1ccc(OC)c(S(=O)(=O)Oc2ccc(Cl)cc2Cl)c1,i
O=C(O)CC(C(=O)O)C(O)c1ccccc1 (stereo unspecified),i
O=C(COc1ccc([N+](=O)[O-])cc1)Nc1ccc(Cl)cc1C(F)(F)F,i
Cc1ccc2oc(-c3ccc(C)c(NC(=O)c4ccccc4F)c3)nc2c1,i
COc1cc(OC)cc(C(=O)Nc2ccc(OCC(=O)O)cc2)c1,6.0%
C#CCOC(=O)Nc1cccc(Cl)c1,i
COC(=O)CN1C(=S)N(c2ccc(OC)cc2)C(=O)C1CC(=O)Nc1ccc(C(=O)OC)cc1 (stereo unspecified),i
Cc1sc(NC(=O)C2CC(Cl)=CCC2C(=O)O)c(C#N)c1C (stereo unspecified),i
COCCn1c(C23CC4CC(CC(C4)C2)C3)n[nH]c1=S,i
COc1ccc(OC)c(-c2cc(C(=O)O)c3ccccc3n2)c1,i
COc1ccc(C(=O)Nc2ccc(-c3nc4ccccc4s3)c(Cl)c2)cc1OC,i
O=c1[nH]c(SCc2ccccc2F)nc2ccccc12,i
O=C(Nc1ccc(Cl)cc1F)c1cc(-c2cccs2)nc2ccccc12,15.6%
S=C(NCc1ccco1)Nc1ccc(Br)cc1Cl,i
Cc1csc(NC(=O)CSc2nc(C)cc(C)c2C#N)n1,i
O=C(Nc1ccon1)Nc1cccc(Cl)c1Cl,u
Cc1cccc(-n2c(SCC(=O)c3ccc(Cl)cc3)nc3nc4c(cc3c2=O)COC(C)(C)C4)c1,i
O=C(Cc1cccs1)NNC(=S)NCC1CCCO1 (stereo unspecified),i
O=C(COc1ccc(Cl)cc1)Nc1ncc(Cc2ccccc2Cl)s1,i
CCN1C2=C(C(=O)CCC2)C(c2ccc(OCc3ccc(C)cc3)c(Cl)c2)C2=C1CCCC2=O,0.7%
CC(=O)c1ccc(NC(=O)c2c(C)c(-c3ccccc3)nc3ccccc23)cc1,3.2%
CC(NC(=O)Cn1cc(C#N)c2cc(Br)ccc21)c1ccccc1 (stereo unspecified),2.4%
CCCCNC(=S)Nc1ccc(OC)c(Cl)c1,i
CCOC(=O)c1sc(NC(=O)CCCN2C(=O)c3cccc4cccc(c34)C2=O)nc1C,4.1%
C/C=C/c1ccc(OCCCCN2CC(C)CC(C)C2)c(OC)c1 (stereo unspecified),44.4%
CN(C)C(=O)Nc1cccc(OC(=O)N(C)C)c1,i
CCC(Sc1nc(C)cc(=O)[nH]1)C(=O)Nc1nc2ccccc2s1 (stereo unspecified),i
CNC(=S)N1CCN=C1Nc1nc(C)cc(C)n1,i
Cc1ccc(S(=O)(=O)Nc2cc(-c3nn(C)c(=O)c4ccccc34)ccc2N2CCOCC2)cc1,i
COC(=O)c1ccc(NC(=O)CSc2nnc(Cc3ccc(OC)cc3)o2)cc1,11.1µg/mL*
CC(=O)Nc1ccc(OC(=O)CSc2nc(C)cc(C)n2)cc1,i
COc1cc([N+](=O)[O-])ccc1NC(=S)NCc1ccccn1,i
CC1(C)CC(NC(=S)Nc2ccc(F)c(Cl)c2)CC(C)(C)N1,i
CC(=O)Nc1ccccc1NC(=O)CN1C(=O)c2ccccc2C1=O,i
COC(=O)c1cc(OC)c(OC)cc1NC(=S)N1CCN(C(=O)C2CCCO2)CC1 (stereo unspecified),i
COc1ccc(-c2nnc(SCc3c(F)cccc3F)n2-c2ccccc2)cc1OC,i
CCOc1cc(C(=O)Nc2cc(-c3nc4cc(C)cc(C)c4o3)ccc2C)cc(OCC)c1OCC,i
CC1(C)CC(=O)c2cc(C(=O)NCCC3=CCCCC3)c(=O)n(-c3ccccc3)c2C1,2.9%
Nc1nc(NCc2ccccc2)nc(-c2ccccc2)n1,3.4%
Cc1ccccc1C(=O)N1CCN(c2ccc(NC(=O)c3ccc(Cl)c(Cl)c3)cc2)CC1,i
Cc1ccc(S(=O)(=O)N(CC(=O)N2CCCC2)Cc2ccc(Br)cc2)cc1,2.5%
Cc1c(C(=O)N2CCCC2)oc2c1C(=O)CC(C)(C)C2,i
O=C(O)c1cccc(NC(=O)c2ccc(O)cc2)c1,i
Cc1c(C(=O)N2CCOCC2)oc2c1C(=O)CC(C)(C)C2,i
O=C(CCN1C(=O)C2C3C=CC(C4CC34)C2C1=O)Oc1cccc2cccnc12 (stereo unspecified),1.46µg/mL*
Cc1ccc(CN(CC(=O)N2CCN(c3ccc(F)cc3)CC2)S(=O)(=O)c2ccc(C)cc2)cc1,i
Cc1ccc(C(=O)Nc2ncn[nH]2)c(Cl)c1,1.0%
CCOC(=O)CCCSc1nc(N2CCOCC2)c2c(c1C#N)CC(C)(C)OC2,i
COc1ccc(C(=O)c2sc(Nc3cccc(Cl)c3)c(C#N)c2N)cc1OC,i
COc1ccc(N(CC(=O)Nc2cccc(F)c2)S(=O)(=O)c2ccccc2)cc1Cl,2.3%
COc1ccc(CC(=O)NNC(=S)NC(C)c2ccccc2)cc1 (stereo unspecified),i
O=c1oc2cc(OCc3ccc(F)cc3F)ccc2c2c1CCC2,i
O=C(CSc1nnc2sc3ccccc3n12)Nc1nccs1,i
Cc1ccc(C/C(N)=N/OC(=O)c2ccc(I)cc2)cc1,2.0%
COc1ccc(-n2c(-c3ccc(O)cc3)nnc2C(c2ccccc2)c2ccccc2)cc1,i
CCC(Oc1ccccc1)C(=O)Nc1ccc(Cl)cc1Cl (stereo unspecified),i
COc1cc(OC)c(OC)cc1CN1CCN(S(=O)(=O)c2ccc(C)cc2)CC1,i
Cc1cccc(CC2CC(=O)N(c3ccc([N+](=O)[O-])cc3)C2=O)c1 (stereo unspecified),i
# Carrying on:
SMILES,Mtb growth
O=C(O)COc1ccc2occ(C(=O)c3cccs3)c2c1,0.2%
COc1ccc(N(CC(=O)NCc2ccccc2OC)S(C)(=O)=O)cc1,i
Cc1cc(=O)[nH]c(SCC(=O)N2c3ccccc3CCc3ccccc32)n1,i
Cc1ccc(Cl)cc1NC(=O)CSc1nnc(CNC(=O)c2ccccc2Cl)n1C,i
COCc1nnc(NC(=O)c2ccc(-c3ccccc3)cc2)s1,i
O=C(NC(=S)NCc1cccnc1)c1ccc(Br)o1,i
CN(C)/C=C/c1c(C#N)c(=O)ncn1Cc1ccccc1,i
S=C(Nc1cccc2ccccc12)N1CCCCC1c1cccnc1 (stereo unspecified),i
O=[N+]([O-])c1cc(C(F)(F)F)ccc1NCCc1ccncc1,i
O=C(C1CCCO1)N1CCN(C(=S)NCC2CCCO2)CC1 (stereo unspecified),i
COc1ccc(N(CC(=O)Nc2ccccc2C(=O)N2CCOCC2)S(=O)(=O)c2ccc(F)cc2)cc1,i
N#Cc1c(NC(=O)CN2CCc3ccccc3C2)sc2c1CCCC2,i
CCc1nc(SCc2ccc(Cl)cc2Cl)n[nH]1,5.9%
O=C1CCCc2c1nn(-c1ccccc1)[n+]2[O-],6.1%
O=C(O)c1cccc(NC(=O)c2cn(-c3ccccc3)nc2-c2ccc([N+](=O)[O-])cc2)c1,i
Cc1ccc(-c2nnc(SCC(=O)Nc3nc(-c4ccc(Br)cc4)cs3)n2C)cc1,i
CC(C)(C)c1ccc(C(=O)NC(=S)NCc2ccco2)cc1,2.16µg/mL*
COc1ccccc1NC(=O)c1ccc(Cn2nnc3ccccc32)cc1,i
CCn1c(SCC(=O)NC(c2ccccc2)c2ccccc2)nnc1-c1ccc(N)cc1,i
COc1ccc(Cl)cc1C(=O)NC(=S)Nc1nc(-c2ccc3ccccc3c2)cs1,1.5%
O=C(CSc1nnc(-c2cnccn2)n1-c1ccccc1)Nc1ccc(Br)cc1,i
CCNC(=S)NCc1ccc(F)cc1,i
CC(C)Cc1nnc(NC(=O)CSc2ccccc2)s1,i
CCOc1cccc(NC(=O)c2ccc(S(=O)(=O)N3CCCC3)cc2)c1,i
Cc1cc(=O)oc2cc(NC(=S)NNC(=O)C(Sc3ccccc3)c3ccccc3)ccc12 (stereo unspecified),i
CN(C)CCCNC(=S)Nc1ccc(Cl)cc1,i
COCC(=O)Nc1nc(-c2ccc(C)cc2)cs1,i
COc1ccc(C)cc1NC(=O)c1ccc(N(Cc2ccccc2C)S(C)(=O)=O)cc1,3.5%
O=C1CC2(CCCC2)CC(=O)N1c1ccc(Br)cc1,i
COCCCNCCOCCOc1c(C)cc(C)cc1C,i

# Part of the list above in order of count of non-hydrogen atoms, high to low:
SMILES,Mtb growth
Cc1cc(=O)oc2cc(NC(=S)NNC(=O)C(Sc3ccccc3)c3ccccc3)ccc12 (stereo unspecified),i
CCn1c(SCC(=O)NC(c2ccccc2)c2ccccc2)nnc1-c1ccc(N)cc1,i
COc1ccc(C)cc1NC(=O)c1ccc(N(Cc2ccccc2C)S(C)(=O)=O)cc1,3.5%
COc1ccc(Cl)cc1C(=O)NC(=S)Nc1nc(-c2ccc3ccccc3c2)cs1,1.5%
O=C(CSc1nnc(-c2cnccn2)n1-c1ccccc1)Nc1ccc(Br)cc1,i
COc1ccccc1NC(=O)c1ccc(Cn2nnc3ccccc32)cc1,i
CCOc1cccc(NC(=O)c2ccc(S(=O)(=O)N3CCCC3)cc2)c1,i
N#Cc1c(NC(=O)CN2CCc3ccccc3C2)sc2c1CCCC2,i
CC(C)(C)c1ccc(C(=O)NC(=S)NCc2ccco2)cc1,2.16µg/mL*
COCCCNCCOCCOc1c(C)cc(C)cc1C,i
CC(C)Cc1nnc(NC(=O)CSc2ccccc2)s1,i
O=C1CC2(CCCC2)CC(=O)N1c1ccc(Br)cc1,i
COCC(=O)Nc1nc(-c2ccc(C)cc2)cs1,i
O=C1CCCc2c1nn(-c1ccccc1)[n+]2[O-],6.1%
CCNC(=S)NCc1ccc(F)cc1,i

# (cont.)
SMILES,Mtb growth
O=C(Nc1ccccc1F)c1ccc(-c2cccc(C(F)(F)F)c2)o1,3.5%
Cc1cc(C)nc(SCC(=O)N(C)C)n1,i
O=C(Nc1ccccc1N1CCCCC1)c1ccco1,2.9%
CCOC(=O)C1=C(C)N=c2s/c(=C\c3cccs3)c(=O)n2C1c1ccc(OC(C)=O)cc1 (stereo unspecified),i
COc1ccc(OC)c(C2C3=C(CCCC3=O)NC3=C2C(=O)CCC3)c1,i
CCOC(=O)c1cnc2nc(COc3ccccc3)[nH]n2c1=O,i
CCOc1ccc(N(CC(=O)N2CCCCCC2)S(C)(=O)=O)cc1,0.1%
COc1cccc(S(=O)(=O)N2CCN(c3ccccc3F)CC2)c1,4.2%
Cc1cc(C)n2c(SCC(=O)Nc3ccccc3)nnc2n1,i
CCOC(=O)C1=C(C)N=c2s/c(=C/c3ccc4c(c3)n(C)c(=O)n4C)c(=O)n2C1c1ccccc1 (stereo unspecified),i
Cc1ccc(S(=O)(=O)N2C(=O)CCC2C(N)=O)cc1 (stereo unspecified),4.2%
CS(=O)(=O)N(CC(=O)N1CCN(c2ccccc2)CC1)c1cc(Cl)ccc1Cl,0.9%
COc1ccc(NS(=O)(=O)c2ccc(NC(=O)c3ccc(-c4ccccc4)cc3)cc2)cc1,i
O=C(O)C1C2CCC(O2)C1C(=O)N1CCN(c2ccccc2F)CC1 (stereo unspecified),i
COC(=O)c1ccccc1NC(=O)CN(c1ccccc1)S(=O)(=O)c1ccc(OC)cc1,i
Cc1cc(N2C(=O)c3ccc(C(=O)c4cccc([N+](=O)[O-])c4)cc3C2=O)no1,i
Cc1ccc2c(c1)c1nnc(SCCN3CCOCC3)nc1n2C,i
Cc1ccc(OCCCCN2CCNCC2)c(C(C)(C)C)c1,i

# Bioassay records deposited in PubChem by Southern Research Institute.
